# Sa helicase inh: blocks Staphylococcus aureus DNA helicase. purified S. aureus helicase, fluorescence unwinding assay; about half of the hits fall short of the stated cut. inhibition, %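 (tested at about 80 µM)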. 0.05% of 120,000 active;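 active = both duplicates at 50% or more, or one of them with a favoured structure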;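 note: 0% = mean of negative control wells and 100% = mean of positive control wells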
# MgrA DNA FP: S. aureus MgrA-DNA binding modulation; fluorescence polarization; inhibition, %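 (about 10 µg/mL by stock and volumes)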; 0.13% of 84,000 active; AID 602314;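 active = above 50% in either of two replicates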;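 note: 0% = protein plus DNA without compound and 100% = DNA alone without protein; higher means less MgrA bound to DNA so lower polarization; one replicate is shown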
# The depositor's hits bear a star; . = no result given; & = joins results of further samples. This is a subset (hit frequency here may not be typical).
MgrA DNA FP	Sa helicase inh	compound
-0.6	.	CS(=O)(=N/C=C(\C#N)S(=O)(=O)c1ccc(C(F)(F)F)cn1)c1ccc(Cl)cc1 (configuration not stated)
.	-16	COc1cc(S(=O)(=O)N2CCN(c3ccccc3OC)CC2)c(C)cc1C
-3.1	-3	CCC1CCCCN1C(=O)CSc1nnc2c3ccccc3n(CC(=O)O)c2n1 (configuration not stated)
0.4	11	O=C(CNc1ccc(F)c(Cl)c1)Nc1ccc2c(c1)OCCO2
.	9	O=C(Cn1nnc(-c2ccc(Cl)cc2)n1)NCC(F)(F)F
-2.4	-16	CCOc1ccc(CC(=O)NC2CC(C)(C)N(C)C(C)(C)C2)cc1OCC
-1.8	3	CCN(Cc1ccccc1)C(=O)c1sc2nc(C)cc(C)c2c1N
2.2	.	O=C(c1[nH]c2ccccc2c1-c1ccccc1)N1CCOCC1
.	-11	CC(=O)Nc1ccc(C(F)(F)F)cc1N
.	3	CC(OC(=O)C1CCN(C(=O)c2ccc(Cl)cc2)CC1)C(=O)NC1CC1 (configuration not stated)
.	10	CCN(CC)Cn1c(O)c(N=NC(=O)Cc2ccc(OC)cc2)c2cc(Br)ccc21
0.2	.	N#Cc1c(OCC(F)(F)F)ccc(SCc2ccccc2)c1OCC(F)(F)F
0.4	.	Cc1ccc(-n2ncc(N(C)N3CC(C)(C)C3=O)c(Cl)c2=O)cc1
.	13	O=C1CC2(CCCC2)C(=O)N1CN1CCN(S(=O)(=O)c2ccc(F)cc2)CC1
0.2	2	O=C(NCCc1ccccc1)c1cc(=O)c2ccccc2o1
.	-26	O=C(COC(=O)c1ccccc1Br)c1cc2ccccc2o1
0.0	-13	O=C(CC(NCc1ccco1)C(=O)O)Nc1cccc(C(F)(F)F)c1 (configuration not stated)
.	6	COc1ccc(S(=O)(=O)CCC(=O)O)cc1
-4.6	4	COc1ccc(NC(=O)C2C3C=CC(C3)C2C(=O)NCc2ccco2)cc1 (configuration not stated)
.	25	CC1CN(S(=O)(=O)c2cccc(C(=O)N(C)C3CCCCC3)c2)CC(C)O1 (configuration not stated)
.	3	O=C(OCc1cc(Cl)cc2c1OCOC2)c1ccc2c(=O)n3c(nc2c1)CCCCC3
2.2	8	CC(=O)n1c(C=Nc2ccccc2)c(O)c2ccccc21
.	11	NS(=O)(=O)c1ccc(NC(=O)COC(=O)CN2C(=O)C3CC=CCC3C2=O)cc1 (configuration not stated)
.	-11	COc1ccc(CNC(=O)CCNc2ccc(C)cc2)cc1
-2.2	14	CCc1ccc(C2C(C(=O)OC)=CNC=C2C(=O)OC)cc1

# (list continues)
MgrA DNA FP	Sa helicase inh	compound
.	2	Cc1cc(C2=NNC(=NCC3CCCO3)SC2)c(C)n1-c1c(C)n(C)n(-c2ccccc2)c1=O (configuration not stated)
.	-4	CCOc1ccc(-c2nc3ccccc3s2)cc1
.	7	Cc1ccc(S(=O)(=O)NC(=O)NC(C)C2CC3CCC2C3)cc1 (configuration not stated)
0.3	10	CCC(CC)C(=O)Nc1cccc(I)c1
.	-14	COC(=O)c1ccccc1NC(=O)CNCCc1ccc(OC)c(OC)c1
.	-4	Cc1cc(NC(=O)CSC2=NCCS2)no1
3.4	-7	COc1ccc(CCN(Cc2nc3ccccc3c(=O)[nH]2)C(=O)C(C)C)cc1
2.5	.	C=C1CC2CC(=O)CC(C1)C2
-0.5	-3	Cc1cc2c(cc1S(=O)(=O)NCCN1CCN(c3ccccc3F)CC1)OCC(=O)N2
-0.3	7	CCC1(CC)Cc2ccccc2C(=O)N1
0.5	7	O=C1/C(=C/c2cccnc2)CC/C1=C\c1cccnc1
0.6	16&23	c1ccc(CNC2=NCCCCC2)cc1
-2.0	.	O=[N+]([O-])c1ccc(C2OCC3(CO)COC(c4ccc([N+](=O)[O-])cc4)N23)cc1 (configuration not stated)
-3.7	2	COc1ccc(C(=O)CSc2nc3c([nH]2)c(=O)n(C)c(=O)n3C)cc1
.	2	CC(C)C(C(=O)O)N1C(=O)CSC1=S (configuration not stated)
.	-11	COc1ccccc1Oc1c(F)c(F)nc(N2CCCCC2)c1F
-2.0	11	CC(=O)OC1CCC([N+](C)(C)C)C(OC(C)=O)C1[N+](C)(C)C (configuration not stated)
2.0	.	OCCNNC(=S)NC1CC2C=CC1C2 (configuration not stated)
0.8	.	O=C(O)c1ccccc1-n1cccc1C(=O)O
.	-13	CCCCN(C(=S)Nc1cccc(C)c1)c1c(N)n(CCC)c(=O)[nH]c1=O
.	3	O=C(O)c1n[nH]c2c1CCCC2
0.6	1	CCN1C(=O)/C(=C\C=C2/Sc3ccc(Cl)cc3N2C)SC1=S
4.8	17	COc1ccc(CNC(=O)C2CC(=O)N=C(N)S2)cc1 (configuration not stated)
-2.5	0	CN(C)C(=O)C1CC(=O)N(c2ccc(Cl)cc2)C1 (configuration not stated)
.	-20	Cc1cccc2sc(NC(=O)c3ccccc3)nc12

# Arranged by molecular weight (lowest first): 3 of the compounds above
MgrA DNA FP	Sa helicase inh	compound
0.6	16&23	c1ccc(CNC2=NCCCCC2)cc1
-0.3	7	CCC1(CC)Cc2ccccc2C(=O)N1
0.8	.	O=C(O)c1ccccc1-n1cccc1C(=O)O

# Other structures follow:
MgrA DNA FP	Sa helicase inh	compound
4.3	-5	O=S(=O)(NN=Cc1cn(-c2ccccc2)nc1-c1ccco1)c1ccc(Cl)cc1
.	7	CCOc1ccc2[nH]c(=S)[nH]c2c1
1.6	14	CCn1c(SCC(N)=O)nc2ccccc21
.	9	O=C1C(Cc2ccccc2)N=C(N2CCN(c3ccc(Cl)cc3)CC2)N1c1ccccc1 (configuration not stated)
-0.6	5	Cc1ccc(C(=O)NCC(=O)O)s1
-1.5	.	Cc1cc(C(=O)NN)c2cc(Br)ccc2n1
-1.7	6	O=C(NCSc1nc2ccccc2s1)c1ccco1
.	14	CSc1sc(C(=O)/C=C/N(C)C)c(-c2cccs2)c1C#N
.	8	C=CCOc1ccc(CN(C)CC(O)COc2ccccc2C(C)C)cc1 (configuration not stated)
-2.0	-4	Cc1ccc(OCc2ccccc2C(=O)Nc2nccs2)cc1
.	-7	C(=C\c1ccccc1)/C=N/Nc1nc2ccccc2[nH]1
.	5	CC1(C)CC2CC(C)(CN2C(=O)COC(=O)c2ccc3c(c2)OCCO3)C1 (configuration not stated)
.	-11	Cc1csc(=O)n1CCC(=O)OCC(=O)c1ccc(S(=O)(=O)N2CCCCC2)cc1
-0.2	13	CCOC(=O)c1cnn2c(C(F)(F)F)cc(C)nc12
6.1	7	O=c1c2c3nc4ccccc4nc3n(-c3cccc(Br)c3)c2ncn1CC1CCCO1 (configuration not stated)
.	-5	CCCCCCc1nc(SCN2C(=O)c3ccccc3C2=O)c2c(=O)n(C)c(=O)n(CCC)c2n1
.	0	COc1ccccc1-c1nnc(NC(=O)c2ccccc2S(C)(=O)=O)o1
.	-19	COC(=O)c1ccccc1NC(=O)Cc1coc2c(C)c(C)ccc12
-0.8	-9	O=C(c1cccc(Br)c1)N(C(=O)c1cccc(Br)c1)c1ncccn1
.	16	CCOc1ccc(CCNC(=O)C2CCN(S(=O)(=O)c3cccc4nonc34)CC2)cc1OCC
.	10	CC(=O)N1N=C(c2ccccc2)OC1(C)CC(=O)Nc1ccccc1 (configuration not stated)
-0.2	-16	O=C(COCC(=O)N1CCc2ccccc21)N1CCc2ccccc21
12	.	CCOc1cc(C=C2C(=O)NC(=S)NC2=O)cc(Br)c1OCCOc1ccccc1C
0.0	4	Cn1c(=O)cc(SCC(=O)NC2CCCCC2)c2ccccc21
.	12	N#Cc1c(NC(=O)COC(=O)C2CC3C=CC2C3)oc(-c2ccccc2)c1-c1ccccc1 (configuration not stated)

# Entries of single compounds from above.
# Record of `CC1(C)CC2CC(C)(CN2C(=O)COC(=O)c2ccc3c(c2)OCCO3)C1` (configuration not stated) : MgrA DNA FP: .; Sa helicase inh: 5
# Record of `O=C1C(Cc2ccccc2)N=C(N2CCN(c3ccc(Cl)cc3)CC2)N1c1ccccc1` (configuration not stated) : MgrA DNA FP: .; Sa helicase inh: 9
# Record of `COc1ccccc1Oc1c(F)c(F)nc(N2CCCCC2)c1F` : MgrA DNA FP: .; Sa helicase inh: -11

# In the list so far, these have two or more sulfur atoms:
MgrA DNA FP	Sa helicase inh	compound
-0.6	.	CS(=O)(=N/C=C(\C#N)S(=O)(=O)c1ccc(C(F)(F)F)cn1)c1ccc(Cl)cc1 (configuration not stated)
.	-4	Cc1cc(NC(=O)CSC2=NCCS2)no1
.	2	CC(C)C(C(=O)O)N1C(=O)CSC1=S (configuration not stated)
0.6	1	CCN1C(=O)/C(=C\C=C2/Sc3ccc(Cl)cc3N2C)SC1=S
-1.7	6	O=C(NCSc1nc2ccccc2s1)c1ccco1
.	14	CSc1sc(C(=O)/C=C/N(C)C)c(-c2cccs2)c1C#N
.	-11	Cc1csc(=O)n1CCC(=O)OCC(=O)c1ccc(S(=O)(=O)N2CCCCC2)cc1

# New compounds follow:
MgrA DNA FP	Sa helicase inh	compound
.	4	CN(Cc1ccccc1)C(=O)CCn1c(=O)oc2ccccc21
-2.9	14	C[S+](C)c1ccccc1
.	2	C=CCSC1=C(C#N)C(c2ccccc2OC)C(C#N)C(=O)N1 (configuration not stated)
.	11	Nn1c(Cc2cccc3ccccc23)nnc1SCC(=O)N1CCCC1=O
0.2	18	O=C(CSc1nc2c(c(=O)[nH]1)CCC2)N1CCCCCC1
1.8	.	Cc1cc(CO)cc(C)c1Br
2.6	3	CNc1c(NS(=O)(=O)c2ccc(Cl)cc2)c(=O)oc2ccccc12
.	14	CC(NCc1cn(Cc2ccccc2)nc1-c1cccnc1)c1ccc(-n2ccnc2)cc1 (configuration not stated)
.	7	COc1ccc(-c2n[nH]c(C)c2-c2ccccc2)c(O)c1
.	9	O=C(COc1ncnc2sccc12)c1ccc2c(c1)OCCO2
.	-16	CC(C(=O)NCCCN1CCN(C)CC1)n1nc(-c2ccccc2)c2cc(Cl)ccc21 (configuration not stated)
.	13	COc1cccc(NC(=O)c2oc3ccccc3c2NC(=O)c2cccs2)c1
-3.4	6	CSc1ccc(-c2ccc(C(=O)O)c(Cl)n2)cc1
8.8	-5	O=C(CCCn1nc(-c2ccccc2)c2ccccc21)N1CCc2ccccc21
-1.7	.	O=S(=O)(Nc1cc(Cl)cc(Cl)c1)c1ccccc1Oc1ccc(Cl)cc1Cl
0.3	4	CCn1cc(C(=O)NC2CCCCCC2)c(=O)c2ccc(C)nc21
.	2	O=C1c2ccncc2C(=O)N1Cc1ccccc1
.	-10	Cc1nnc(NNC(=O)c2ccc(C#N)cc2)[nH]c1=O
-0.6	-6	FC(F)(F)C(F)(F)C(F)(F)c1nnc2ccc(N3CCOCC3)nn12
2.7	-14	O=C(COC(=O)/C=C/c1ccco1)NC1CCCCC1
6.5	.	S=C(NC1CCCCC1)C(=S)NC1CCCCC1
0.9	12	CCOc1ccc(N2C(=O)c3ccccc3NC2(CC)CC)cc1
-0.9	.	Cc1ccc(C(=O)CSc2nc(N)c(C#N)c(-c3cccs3)c2C#N)c(C)c1
-0.1	.	CCOC(=O)C1=C(C)N=c2s/c(=C\c3ccc(OC)c(OC)c3OC)c(=O)n2C1c1ccc(OC)cc1 (configuration not stated)
.	7	c1ccc(Nc2nc(CN3CCN(c4ncccn4)CC3)cs2)cc1

# Additional compounds follow:
MgrA DNA FP	Sa helicase inh	compound
.	19	O=C(O)C1CCCN1C(=O)Nc1ccc(Br)cc1 (configuration not stated)
-10	4	CCC(C)c1ccc(NC(=S)NC(=O)c2ccco2)cc1 (configuration not stated)
.	7	CC(C)NS(=O)(=O)c1cccc(C(=O)O)c1
.	5	Cc1onc(-c2ccccc2)c1C(=O)NC1CCOc2ccccc21 (configuration not stated)
.	-9	CC(C)(C)C(=O)CSc1nnc2sc3ccccc3n12
.	-24	CCOc1ccc(-c2csc(/C(C#N)=C/Nc3ccc4c(c3)OCO4)n2)cc1
2.9	1	Cc1nc(N=C(N)N)nc2ccccc12
.	7	COC(=O)c1ccc(-c2ccco2)n1CC(=O)N1CCc2ccccc2C1
-3.9	.	CC1=CC(=O)OC(c2ccccc2)C1 (configuration not stated)
.	-1	CN1CC2(C(=O)c3ccccc3)CN(C)CC(C(=O)c3ccccc3)(C1)C2
-0.2	13	CC(C)CCNC(=O)c1cc2c(=O)oc3ccccc3c2s1
.	-5	Cc1[nH]c(=S)n(CC(C)C)c1C
2.0	11	CCOc1ccccc1NC(=O)COC(=O)Cc1c(Cl)cccc1Cl
.	-2	O=C(Nc1ccc2sccc2c1)c1cccc(N2C(=O)CCC2=O)c1
0.4	18	O=C(Nc1ccc2c(c1)Cc1ccccc1-2)c1ccc(Br)o1
.	15	CC(C)c1ccc(Cn2cnc3ccccc32)cc1
.	31	O=C(c1ccco1)N1CCN(C(=O)c2cccc3c2C(=O)N(Cc2cccnc2)C3)CC1
0.2	7	Cc1nc2cc(-c3ccc(Br)cc3)[nH]n2c(=O)c1Cl
.	-13	NC(=O)CCSC(=S)N1CCOCC1
.	19	COC(=O)c1cc(Nc2cc(C)nc3ncnn23)cc(C(=O)OC)c1
-1.5	7	COc1ccc(CNC(=O)c2cccs2)cc1
-4.5	13	CN(C)S(=O)(=O)c1cccc(C(=O)Nc2ccccc2)c1
-1.2	3	O=C(C1CCCN(Cc2cccc(Cl)c2)C1)N1CCCCCC1 (configuration not stated)
.	-22	CCN(CC)S(=O)(=O)c1ccc(/C=C/C(=O)N(c2ccccn2)C2CCCCC2)cc1
.	2	N#C/C(=C/c1ccc(-c2cccc(C(F)(F)F)c2)o1)C(=O)N1CCOCC1

# Remaining list, next part
MgrA DNA FP	Sa helicase inh	compound
-0.6	17	CCN(C(=O)c1cc2c(=O)n3cccc(C)c3nc2s1)c1ccc(OC)cc1
.	10	CCC(O)c1nc2ccccc2n1CC (configuration not stated)
.	11	CCOC(=O)c1c(C)nc(-c2ccccc2)nc1N
-0.9	15	COc1ccc(/C=C/C2=CCN(Cc3ccccc3)CC2)cc1
.	-12	Cc1csc(Nc2nc(N)c(C(=O)Nc3ccccc3)o2)n1
-5.4	4	CCOC(=O)NNc1nc2ccccc2n1Cc1ccccc1

# From PubChem
